gsp agonist – qHTS for Agonist of gsp, the Etiologic Mutation Responsible for Fibrous Dysplasia/McCune-Albright Syndrome: qHTS | gsp mutant cells, cAMP HTRF, 30 min; control for the full effect not named in the record | Potency, µM (doses to about 76.9 µM), inactives show at the top dose activation (cAMP increase), most hits filed as activators | 340,000 compounds, 0.13% hits | AID 624287, 2012; active = well fitted activation curve with a large enough effect; inconclusive = small, poorly fitted or top-dose-only effect, or another doubt; inactive = no such curve, though single readings can be large or run the other way; cell line not stated here;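 further: phosphodiesterase inhibitor Ro 20-1724 added with compounds to block cAMP breakdown; potency means the concentration at half of the fitted maximal effect; nearly all actives have a fitted effect of over 60% in size; about a fifth of the inactives were tested at one dose only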
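Cells stably selected in G418 were plated at 2000/well, grown 16-24 hr, then given compounds in DMSO with the PDE inhibitor […] (300 uM solution added) for 30 min at 37C; cAMP was read by HTRF.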
Menin-MLL FL inh – qHTS Assay for Inhibitors Targeting the Menin-MLL Interaction in MLL Related Leukemias: Competition With Fluorescein Labeled MLL-derived Peptide; Fluorescence polarization, fluorescein-MLL peptide displacement from menin; FP activity change, % at 61.4 µM; 290,000 tested, under 10 active; inconclusive = falling polarisation curve, or a change in total fluorescence; inactive = total fluorescence flat and polarisation flat or rising; no compound was filed as active; the % refers to the polarisation; negative = inhibition;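 further: % of control where 0% means no effect; inhibitors lower the polarisation; unlabelled MLL peptide was the positive control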
TRPV1 potentiator – HTS Assay for Compounds that Act as Potentiators of the Vanilloid Receptor 1. Transient receptor potential cation channel subfamily V member 1 (Homo sapiens), Q8NER1. TRPV1-expressing cells, Fluo-8 calcium influx, capsaicin EC20 potentiation; host cell line not named in the record; control for the full effect not named in the record. potentiation, % at 8.33 µM. 320,000 compounds, 0.02% hits. AID 540277, 2011; active means potentiation above 80%; inconclusive means 30% to 80%; inactive means below 30%; further: 0% is about no effect
Target sequence (Q8NER1 whole entry, looked up): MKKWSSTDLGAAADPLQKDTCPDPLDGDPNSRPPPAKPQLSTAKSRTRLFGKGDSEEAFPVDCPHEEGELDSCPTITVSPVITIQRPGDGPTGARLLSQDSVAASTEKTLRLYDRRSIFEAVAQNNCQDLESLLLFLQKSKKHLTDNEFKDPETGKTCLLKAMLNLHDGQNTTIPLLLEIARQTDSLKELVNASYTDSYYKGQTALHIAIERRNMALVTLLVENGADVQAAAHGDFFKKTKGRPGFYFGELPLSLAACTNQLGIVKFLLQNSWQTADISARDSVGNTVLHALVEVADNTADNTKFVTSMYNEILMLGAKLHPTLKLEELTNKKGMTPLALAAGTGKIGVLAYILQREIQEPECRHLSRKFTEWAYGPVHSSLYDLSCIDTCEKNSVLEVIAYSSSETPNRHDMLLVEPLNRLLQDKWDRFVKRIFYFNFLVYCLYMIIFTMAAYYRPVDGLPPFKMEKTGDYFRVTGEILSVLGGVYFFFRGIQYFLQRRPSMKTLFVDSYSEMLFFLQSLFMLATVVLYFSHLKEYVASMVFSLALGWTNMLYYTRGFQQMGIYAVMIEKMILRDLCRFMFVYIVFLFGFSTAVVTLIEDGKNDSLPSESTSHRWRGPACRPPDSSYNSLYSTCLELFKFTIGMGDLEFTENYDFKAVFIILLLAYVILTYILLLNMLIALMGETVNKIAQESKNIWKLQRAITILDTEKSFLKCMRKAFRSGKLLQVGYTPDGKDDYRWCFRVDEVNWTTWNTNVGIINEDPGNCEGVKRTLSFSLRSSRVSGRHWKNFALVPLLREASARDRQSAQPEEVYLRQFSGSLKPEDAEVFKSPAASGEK
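Cells expressing TRPV1 were dye-loaded with Fluo-8 and read kinetically: 10 s baseline, 3 min after compound (agonist portion), then 2 min after EC20 capsaicin (allosteric enhancer portion). Calcium-bound dye fluorescence at 480/520 nm.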
ClpP mod – qHTS Assay for Activators of ClpP | purified B. subtilis ClpP, FRET peptide cleavage, 20 min | Potency, µM (highest dose often 57.5 µM), for the others: at the highest dose activity change, negative = active | 340,000 compounds, 1.9% hits; active = well fitted falling curve with a large enough effect; inconclusive = small, poorly fitted or top-dose-only effect; inactive = no such curve, though single readings can be large or run the other way; further: potency means the concentration at half of the fitted maximal effect; the source files actives as falling curves though it sought activators and does not explain the sign; nearly all actives have a fitted effect of over 65% in size; many hits overshoot -100%
Target sequence (P80244 whole entry, looked up): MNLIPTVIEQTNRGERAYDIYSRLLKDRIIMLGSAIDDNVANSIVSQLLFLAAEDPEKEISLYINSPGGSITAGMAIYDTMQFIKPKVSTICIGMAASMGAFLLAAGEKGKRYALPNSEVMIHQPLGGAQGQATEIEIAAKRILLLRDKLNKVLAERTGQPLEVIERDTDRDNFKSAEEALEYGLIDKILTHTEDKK
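Buffer: 100 mM Tris/HCl pH8, 100 mM KCl, 0.05% low protease BSA, 2.5% glycerol, 0.01% Tween-20. ClpP 10 microg/mL final; 20 min RT; delta FRET normalized to ADEP and DMSO controls.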
CtBP-E1A blk – qHTS Assay for Inhibitors of the CtBP/E1A Interaction; AlphaScreen GST-E1A/His-CtBP binding, 1536-well; active compounds read low; control for the full effect not named in the record; activity change, % (test concentration not listed); 340,000 compounds, 0.49% hits; AID 651724, 2012; in the data active means activity change below about -65%; inconclusive means about -30% to -65%; inactive means above about -30%; further: on the % scale 0 is the no-effect control and ±100 the full control effect
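Homogeneous bead-based format: GST-tagged E1A captured on glutathione donor beads, His-tagged CtBP on nickel acceptor beads; compounds precede bead addition by 2 h at 37 °C.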
Sfp inh – qHTS Assay for Inhibitors of Bacillus subtilis Sfp phosphopantetheinyl transferase (PPTase); 310,000 compounds, 3.5% hits; AID 1490, 2009; Potency, µM, inactives show max response, negative = inhibition, hits mostly inhibitors; Biochemical Sfp PPTase activity, qHTS; active means well fitted inhibition curve with a large enough effect; inconclusive means small, poorly fitted or top-dose-only effect, or another doubt; inactive means no such curve, though single readings can be large or run the other way;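 further: the enzyme is Sfp with the accession as filed and its product quenches rhodamine fluorescence; potency means the concentration at half of the fitted maximal effect; 0% = enzyme reaction without inhibitor and -100% = no enzyme wells; top concentration of the series not given in the record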
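Sfp 15 nM + cpd, 15 min RT; start w/ rhodamine-CoA 5 uM, BHQ-2-YbbR 12.5 uM (final); 50 mM Hepes pH 7.6, 10 mM MgCl2, 0.01% NP-40, 0.01% BSA; read 525/598 nm at 0 and 30 min.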
gsp antagonist – qHTS for Antagonists of gsp, the Etiologic Mutation Responsible for Fibrous Dysplasia/McCune-Albright Syndrome: qHTS. gsp-mutant cells, cAMP HTRF, 30 min; control for the full effect not named in the record. Potency, µM (titrated, usually from 76.9 µM), inactives show top-dose activity change, negative = inhibition, actives largely listed as inhibitors. 340,000 compounds, 0.4% hits. AID 624288, 2012; active = falling curve of any shape with a large fitted effect; inconclusive = falling curve, mostly with a smaller effect; inactive = flat or rising curve; cell line not stated here;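 further: intracellular cAMP measured with PDE inhibitor Ro 20-1724 present during compound exposure; potency means the concentration at half of the fitted maximal effect; on the % scale 0 is the no-effect control and ±100 the full control effect; nearly all actives have a fitted effect of over 65% in size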
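G418-selected cells were plated in DMEM/10% FBS for 16-24 h at 37C, then treated with compounds plus the PDE inhibitor […] (300 uM solution added) for 30 min at 37C. Intracellular cAMP was measured by HTRF after 30 min lysis at room temperature.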
The depositor's hits bear a star; ? = inconclusive; . = not tested or not shown; [ ] = dose if it differs, or a comment. Compounds as they come, and some 5.3% of all compounds hit somewhere here.

SMILES | gsp agonist | Menin-MLL FL inh | TRPV1 potentiator | ClpP mod | CtBP-E1A blk | Sfp inh | gsp antagonist
COc1ccc(S(=O)(=O)N2CCCCC2C)cc1 (centres undefined) | 13% | 2.9 | 3 | 1.1% | 6 | 2% | 7%
COC(=O)c1ccccc1S(=O)(=O)N1CCC(C(=O)NC2CCCCC2C)CC1 (centres undefined) | -68%[inhibitor] | . | 13 | 0.3% | 2 | . | 5%
C=CCn1c(C)cc(C(=O)Cn2ncc(Cl)c(Cl)c2=O)c1C | 10% | 3.1 | 2 | -1.3% | -1 | -6% | 2%
CCOc1ccc(-c2c(C)n([O-])c3c([n+]2=O)CCCCC3)cc1 | 7% | -0.6 | -5 | 0.7% | 10 | 2% | -9%
C=CCNC(=O)C(=O)NCC1CCCN1CC (centres undefined) | -5% | 1.0 | -28 | 2.1% | 7 | 2% | 25%
COc1ccc2nc(N(CCN(C)C)C(=O)c3ccc4ccccc4c3)sc2c1 | -10% | . | 11 | 3.8% | . | -8% | 6%
CNC(=O)c1ccc(-c2sc3nc(N4CCOCC4)c4c(c3c2N)CCCC4)o1 | ? | -0.9 | -16 | ? | -23 | -28% | 7%
CCOC(=O)N1CCN(C(=O)COc2ccc(S(=O)(=O)Nc3ccc(OCC)cc3)cc2)CC1 | ? | -1.3 | -15 | 0.0% | 3 | 6% | -25%
CCCCC(=O)Nc1nc(C)c(-c2csc(Nc3ccc(Cl)cc3)n2)s1 | . | 22 | 8 | -23% | 0 | -7% | -2%
O=C(NNC(=O)c1ccccc1Cl)c1ccccc1Cl | 0%[15.4 µM] | 1.9 | -1 | . | 6 | 24% | 11%
Cc1cc(Cl)ccc1C(=O)C1CCCN(C(=O)c2cscn2)C1 (centres undefined) | -9% | -2.0 | -14 | . | 5 | 17% | -1%
CCN1CCC(N2CCN(c3ccccc3OC)CC2)CC1 | -11%[15.4 µM] | -2.3 | 6 | -0.6% | -5 | 17% | 1%
O=C(Cc1cccs1)Nc1ccc(F)c(S(=O)(=O)N2CCOCC2)c1 | 17% | . | -19 | -0.4% | . | . | 8%
CCC(C)(C)C1CCC2(CC1)NC(=O)N(CC(=O)N1CCN(C(=O)c3ccco3)CC1)C2=O (centres undefined) | ? | . | 2 | 1.1% | 4 | . | 8%
Cc1ccc(S(=O)(=O)N(C)CC(=O)Nc2ccc3c(c2)OCO3)cc1 | 2%[15.4 µM] | 0.2 | -19 | 0.2% | -7 | 14% | -2%
O=C(COc1ccccc1)Nc1ccccc1N1CCCCC1 | 21% | 3.6 | -8 | 1.5% | 22 | -12% | -14%
O=C(CSc1nnc(Cn2nnc(-c3ccccc3)n2)n1-c1ccccc1)Nc1ccccc1 | 5% | 1.1 | 0 | -0.8% | -7 | 8% | -1%
CCOC(=O)C(=CNc1cc(C)nn1C(C)(C)C)C(=O)OCC | -28% | 2.5 | -11 | 2.2% | -23 | 15% | -21%
COc1ccc(NC(=O)Nc2nnc(Cc3ccccc3)s2)cc1 | -66%[inhibitor] | -1.1 | -19 | 0.5% | -12 | 5% | 15%
O=C(NCC(O)c1ccccc1)c1cccs1 (centres undefined) | 7% | 0.4 | -2 | 1.5% | . | 14% | 6%
Cc1cccc([C@H]2[C@@H]3C=CCC[C@@H]3C(=O)N2Cc2ccccc2)c1 | . | 3.8[94.6 µM] | . | -0.3% | 1 | ? | -10%
C=CCNC(=O)NC(=O)CSc1nnc(C(F)(F)F)n1C | -24% | -0.7 | 12 | -1.4% | . | 12% | -6%
CCOC(=O)C(Cc1ccc(Cl)cc1Cl)c1ccno1 (centres undefined) | -1% | 1.0 | ? | 1.0% | 13 | 12% | -5%
COc1ccccc1N1CCN(C(=O)CN2C(=O)c3ccccc3S2(=O)=O)CC1 | 0%[15.4 µM] | -0.8 | -3 | . | 4 | -1% | -2%
Cn1c(=O)c(C(=O)NNC(=O)c2ccccc2F)c(O)c2ccccc21 | ? | -0.7 | -5 | . | 9 | 3% | ?

6 records picked at random from those above, as already listed:
SMILES | gsp agonist | Menin-MLL FL inh | TRPV1 potentiator | ClpP mod | CtBP-E1A blk | Sfp inh | gsp antagonist
COc1ccc(NC(=O)Nc2nnc(Cc3ccccc3)s2)cc1 | -66%[inhibitor] | -1.1 | -19 | 0.5% | -12 | 5% | 15%
Cc1cccc([C@H]2[C@@H]3C=CCC[C@@H]3C(=O)N2Cc2ccccc2)c1 | . | 3.8[94.6 µM] | . | -0.3% | 1 | ? | -10%
O=C(CSc1nnc(Cn2nnc(-c3ccccc3)n2)n1-c1ccccc1)Nc1ccccc1 | 5% | 1.1 | 0 | -0.8% | -7 | 8% | -1%
O=C(NNC(=O)c1ccccc1Cl)c1ccccc1Cl | 0%[15.4 µM] | 1.9 | -1 | . | 6 | 24% | 11%
CCOC(=O)C(Cc1ccc(Cl)cc1Cl)c1ccno1 (centres undefined) | -1% | 1.0 | ? | 1.0% | 13 | 12% | -5%
Cc1ccc(S(=O)(=O)N(C)CC(=O)Nc2ccc3c(c2)OCO3)cc1 | 2%[15.4 µM] | 0.2 | -19 | 0.2% | -7 | 14% | -2%

Continued.
SMILES | gsp agonist | Menin-MLL FL inh | TRPV1 potentiator | ClpP mod | CtBP-E1A blk | Sfp inh | gsp antagonist
CCOC(=O)c1[nH]c(C)c(C(=O)OCc2c(C)noc2C)c1C | -8% | -0.5 | -3 | 0.3% | 29 | 4% | 13%
Cc1cc(C)n2nc(C(=O)OC(C)C(=O)c3cc(C)c(C)cc3C)nc2n1 (centres undefined) | -25% | . | 17 | -6.9% | -26 | . | 7%
Fc1ccccc1CNc1ccc(Cl)cc1 | 4% | 6.7 | 4 | -2.9% | 6 | 10% | -33%
C/C(=N\O)c1cc(Cl)ccc1O | -16% | 0.9 | . | 0.6% | 0 | 15% | 5%
O=C1CCCC2=C1C1(CCCCC1)N=C(Nc1nc3ccccc3o1)N2 | -17% | 0.8 | -5 | -26% | -3 | 4% | -45%
CCOc1ccc2nc(N3CCCC(C(=O)NCC4CCCO4)C3)sc2c1 (centres undefined) | -28% | 1.8 | 10 | -0.8% | . | -1% | -1%
O=[N+]([O-])c1cccnc1-n1cnc2ccccc21 | -42%[inhibitor] | 2.7 | 2 | 1.6% | . | 10µM* | 5%
Cn1nccc1C(=O)Nc1cccc(S(=O)(=O)N2CCOCC2)c1 | -6% | . | 5 | -2.1% | -5 | 19% | 4%
CNc1nc(-c2ccccn2)nnc1-c1ccccc1 | 3% | 1.0 | -10 | 3.3% | -95* | 63µM* | 1%
O=C(c1cnc2ccc3ccccc3c2c1)c1cc(F)ccc1O | -44%[inhibitor] | 0.1 | 21 | 6.7% | -9 | ? | -31%
COc1ccccc1NC(=O)CSc1nc2ccccc2c(=O)n1C | -24% | -0.2 | 7 | 0.8% | . | 14% | 35µM*
CC1CCCC(NC(=O)CSc2cccc[n+]2[O-])C1C (centres undefined) | 19% | . | . | -1.8% | 0 | . | 7%
CC(=O)N1CCN(C(=O)c2ccc(NS(=O)(=O)c3ccc(Cl)c(Cl)c3)cc2)CC1 | 15% | . | . | 14µM* | 5 | . | -8%
CC(C)CN(C(=O)CN1CCN(c2ccc([N+](=O)[O-])cc2)CC1)c1c(N)n(CC(C)C)c(=O)[nH]c1=O | 9% | -2.4 | -1 | -2.1% | 3 | 16% | 2%
Cc1cccc(C)c1NC(=O)Cn1nnc(-c2ccc(CN3CCC(C)CC3)cc2)n1 | -4%[15.4 µM] | 0.8 | 6 | -4.0% | 8 | 23% | 9%
COc1ccc(COC(=O)C2CC(=O)N(Cc3ccccc3)C2)cc1 (centres undefined) | -22% | . | -20 | 0.1% | . | . | 1%
O=C(O)CC/C(=C\c1ccccc1[N+](=O)[O-])c1nc2ccccc2s1 | 13%[15.4 µM] | 0.7 | -5 | 0.5% | 3 | 19% | -22%
Cc1cc(C(=O)OCC(=O)NC2CCCC2)c2ccccc2n1 | -2%[15.4 µM] | . | 2 | 0.1% | 7 | . | 2%
Cn1c(=O)n(CCN2CCOCC2)c(=O)c2c1nc1n2CCN1c1ccc(Oc2ccccc2)cc1 | -3% | 2.5 | 1 | -3.1% | -1 | 21% | -12%
Cc1cccc(-c2noc(C3CCCCC3)n2)c1 | 23% | -1.6 | -21 | -4.4% | 5 | -10% | -4%
C=CCCCOc1ccc(C(=O)O)cc1 | -2% | -1.0 | -2 | 0.0% | 5 | 14% | -7%
O=C1CSc2ccc(C(=O)Nc3cccc(S(=O)(=O)Nc4ccc(Br)cc4)c3)cc2N1 | -15% | -0.5 | -27 | 0.7% | . | 35µM* | 40µM*
COc1ccccc1CNC(=O)c1ccncc1 | -9% | -2.8 | 11 | 1.0% | 14 | 22% | 11%
COC(=O)C1=C(C)N(CCc2ccccc2)C(=O)C1(NS(=O)(=O)c1ccc(NC(C)=O)cc1)C(F)(F)F (centres undefined) | 9% | 1.3 | 10 | -4.2% | 4 | -10% | -11%
O=C1C2C3C=CC(CC3)C2C(=O)N1/N=C/c1ccccc1O (centres undefined) | 7% | 3.3 | 20 | -6.4% | -2 | 17% | -6%
COc1ccc(-c2nc(CSCC(=O)NC3CCCC3)c(C)o2)cc1OC | 11% | 2.3 | -5 | 3.0% | -11 | 11% | -3%
COc1cccc2sc3cc(NCc4ccc(C)o4)ccc3c(=O)c12 | . | . | . | -18% | -11 | . | -7%

Marked active in CtBP-E1A blk, of those listed so far:
SMILES | gsp agonist | Menin-MLL FL inh | CtBP-E1A blk | Sfp inh | gsp antagonist
CNc1nc(-c2ccccn2)nnc1-c1ccccc1 | 3% | 1.0 | -95* | 63µM* | 1%

Source: PubChem
